Screening data from PubChem BioAssay.
Sa ugtP lethal: growth inhibition of ugtP-null S. aureus, primary screen, RN4220 ugtP deletion, OD600; 330,000 tested, 0.54% active; AID 1259309, 2017; growth inhibition, % (concentration not given with the values); 16 h; some inactives read as strong as hits;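 active = z-score under -3 and OD600 up to 0.15 on both plates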;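 note: plate controls were untreated wells for no effect and antibiotic for full effect; wells of about 80 µL received 100 nL stock; the first replicate is given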
Bead autofluor: flagged as autofluorescent in microsphere protease counterscreen; compound autofluorescence counterscreen, microsphere flow cytometry; active compounds read high; fluorescence intensity (concentration not given with the values); AID 624483; 360,000 tested, 3.1% active;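 active = at least 3 SD above the mean of all compounds, about 16000 in these data; inconclusive = too few beads counted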;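 note: 100 nL of 1 mM stock went into each well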
BJeLR lethal: MLPCN primary cell-based screen for lethality selective to Ras in HRASV12 cells. 300,000 tested, 0.17% active. inhibition, % (no concentration beside the values). AID 1554, 2009. BJeLR (HRASV12) viability, CellTiter-Glo ATP luminescence, 48 h; reference of the scale not given here;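 active = replicate mean above 50%; inconclusive = above 50% but judged a plate artefact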;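 note: 50 nL library stock added to about 25 µL; numbers are from one replicate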
PrP UTR inh: inhibition of PrP 5' UTR reporter expression; cell-based PrP 5' UTR mRNA reporter, plate reader; inhibition, % (test concentration not listed); 340,000 tested, 0.35% active;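 active = every replicate at 50% or more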;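 note: 0 = median of the neutral control wells; tested in H4 reporter cells; numbers are from one replicate; inactives centre near -14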
RN4220 kill: growth inhibition of S. aureus RN4220, primary screen, OD600; 16 h; 330,000 tested, 0.33% active; AID 1259311, 2017; inhibition, % (concentration not given with the values);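 active = z-score of -3 or lower and OD600 up to 0.18 on both plates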;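 note: plate controls were untreated cells for no effect and reference antibiotic for full effect; stock transfer was 100 nL into about 80 µL; one replicate is shown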
Mtb hypoxia inh: PubChem AID 1159583; 300,000 tested, 0.1% active; fluorescence inhibition, % (test concentration not listed); M. tuberculosis hypoxia-regulated fluorescent reporter, fluorescence;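 active = 35 to 45% if threefold the growth effect, above 45% if 1.5-fold the growth effect; inactive = the rest, general growth blockers included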;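 note: wells of about 50 µL received 100 nL stock; 0% = vehicle wells and 100% = reference inhibitor wells; whole bacteria with a GFP reporter of the hypoxia response; strong numbers were not always called active; many hits fall short of the cut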
Mtb hypoxia inh growth: also measured in Mtb hypoxia inh; calls as there; growth inhibition, %; measured here: M. tuberculosis growth (absorbance);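 0% = vehicle and 100% = reference antibiotic; read after six days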
Active calls of the source: *; ? = inconclusive; . = no result given. An unsorted share of the library; about 4% have a hit in one of these screens.

#	SMILES	Sa ugtP lethal	RN4220 kill	PrP UTR inh	BJeLR lethal	Mtb hypoxia inh	Bead autofluor	Mtb hypoxia inh growth
1	CC(C)CCOc1ccc(C2CC(=O)N(C)C2=O)cc1 (stereo unspecified)	8	1.7	-19	6	5	3347	13
2	O=C(O)CNc1nc(-c2ccccc2)c2cc([N+](=O)[O-])ccc2n1	2	5.1	-10	-3	3	2046	12
3	CN1CCN(C(=O)c2ccc3c(c2)NC(=O)C(N2CCOCC2)S3)CC1 (stereo unspecified)	1	4.9	-10	-8	6	3545	3
4	CCCOc1ccc(C2/C(=C(\O)c3c(C)[nH]c(C(=O)OC)c3C)C(=O)C(=O)N2CCN(C)C)cc1 (stereo unspecified)	.	.	-3	1	.	3327	.
5	NC(=O)c1nnn(-c2cccc(C(F)(F)F)c2)c1-c1ccccc1	2	2.8	-21	-10	15	6236	1
6	OC(CSc1ccccc1)CN1CCN(c2cccc(Cl)c2)CC1 (stereo unspecified)	-13	1.3	-1	.	10	2818	2
7	CCC1(c2ccc(Cl)cc2)NC(=O)N(Cc2ccc(C(=O)OC)cc2)C1=O (stereo unspecified)	2	-5.4	-5	4	4	4800	9
8	COc1ccc(OCC(=O)Nc2cc(OC)cc(OC)c2)cc1	7	7.3	-20	-13	15	7744	4
9	Cc1ccc(-c2nn(-c3cccc(F)c3)cc2CN(Cc2nccn2C)C(C)C)o1	-2	-0.8	-40	-12	-1	4799	5
10	CC1(C)CC(=O)C=C(NC2CCCC(O)C2)C1 (stereo unspecified)	.	.	1	-8	.	3134	.
11	Cc1cc(C)c2c(n1)sc1c(-c3ccccc3)c(C#N)c(N)nc12	3	0.7	-48	-19	19	2441	-6
12	CCCCOc1ccc(/C(O)=C2/C(=O)C(=O)N(Cc3cccnc3)C2c2ccncc2)c(C)c1 (stereo unspecified)	14	5.1	-13	6	8	9533	8
13	CCN1C(=O)c2ccccc2S(=O)c2ccc(C(=O)NCCCN3CCCC3=O)cc21 (stereo unspecified)	-5	6.0	13	-18	.	3997	.
14	CSc1nc(C)nc(N/C=C(\C#N)S(=O)(=O)c2ccccc2Cl)n1	15	6.4	-5	-1	-14	6194	6
15	Cc1ccc(-n2nnnc2SCC(=O)Nc2sccc2C#N)cc1	-6	6.3	-25	7	2	6827	1
16	Cc1cccc(NC(=O)Nc2nnc(N3CCCCC3C)s2)c1C (stereo unspecified)	-1	-0.9	-32	6	5	5799	-3
17	CCn1c(C)nc2cc(C(=O)NN=Cc3ccc(OC)c(O)c3)ccc21	9	0.5	.	.	2	.	7
18	O=C(C[n+]1ccccc1)Nc1c(Cl)cc(Cl)cc1Cl	0	1.5	-21	-2	-12	4690	1
19	COc1ccc(S(=O)(=O)Nc2cc(C(=O)NCCCOC(C)C)ccc2N2CCOCC2)cc1	7	3.9	-5	0	5	4254	2
20	COc1cccc(NC(=O)CSc2nc3ccccc3nc2N2CCCC2)c1	-8	20	-15	-4	-5	3864	4
21	CCOc1cc(NC(=S)NCCCN2CCOCC2)c(OCC)cc1NC(=O)C(C)C	3	0.8	-7	-8	17	2166	4
22	Cc1ccc(CNC(=O)CCC2CCCN(Cc3cccc4ncccc34)C2)o1 (stereo unspecified)	15	2.9	-13	-1	2	3743	3
23	Cc1cccc(C)c1OCCNC(=O)C(=O)NCc1ccco1	9	4.6	-26	8	-7	2004	3
24	COCCNC(=O)C(c1ccccc1C)N(CCOC)C(=O)Cn1nnc2ccccc21 (stereo unspecified)	2	1.5	-7	7	14	4083	5
25	O=C(CSc1n[nH]c(-c2ccncc2)n1)Nc1ccccc1C(F)(F)F	8	2.0	-11	3	0	5831	1
26	O=C1OC(Nc2ccc(F)c([N+](=O)[O-])c2)c2ccccc21 (stereo unspecified)	0	30	-26	-4	-4	13936	3
27	O=C(NCc1ccccn1)c1cccc(NS(=O)(=O)c2cccc(F)c2)c1	4	-0.1	-15	-10	-1	9673	4
28	CCOc1cc(CN2CCN(CCc3ccccc3)C(CCO)C2)ccc1OC (stereo unspecified)	4	1.8	-22	2	-4	2946	1
29	Cc1cccc(C2=N/C(=C\c3cccnc3)C(=O)O2)c1	6	0.0	9	-12	.	4057	.
30	CCOc1ccc(S(=O)(=O)NCCC(=O)N2CC(C)CC(C)C2)cc1 (stereo unspecified)	3	1.3	-19	23	-17	3736	-4
31	CCOC(=O)c1ccc(COc2nc3ccccc3nc2-c2ccccc2NC(C)=O)o1	-20	-1.6	-4	-4	.	4117	.
32	COc1cc(C(=O)Nn2c(C)nc3ccccc3c2=O)cc(OC)c1OC	7	2.6	-1	2	1	3647	16

13 structures already listed, sorted by heavy-atom count, rising.
#	SMILES	Sa ugtP lethal	RN4220 kill	PrP UTR inh	BJeLR lethal	Mtb hypoxia inh	Bead autofluor	Mtb hypoxia inh growth
18	O=C(C[n+]1ccccc1)Nc1c(Cl)cc(Cl)cc1Cl	0	1.5	-21	-2	-12	4690	1
29	Cc1cccc(C2=N/C(=C\c3cccnc3)C(=O)O2)c1	6	0.0	9	-12	.	4057	.
26	O=C1OC(Nc2ccc(F)c([N+](=O)[O-])c2)c2ccccc21 (stereo unspecified)	0	30	-26	-4	-4	13936	3
23	Cc1cccc(C)c1OCCNC(=O)C(=O)NCc1ccco1	9	4.6	-26	8	-7	2004	3
16	Cc1cccc(NC(=O)Nc2nnc(N3CCCCC3C)s2)c1C (stereo unspecified)	-1	-0.9	-32	6	5	5799	-3
30	CCOc1ccc(S(=O)(=O)NCCC(=O)N2CC(C)CC(C)C2)cc1 (stereo unspecified)	3	1.3	-19	23	-17	3736	-4
25	O=C(CSc1n[nH]c(-c2ccncc2)n1)Nc1ccccc1C(F)(F)F	8	2.0	-11	3	0	5831	1
32	COc1cc(C(=O)Nn2c(C)nc3ccccc3c2=O)cc(OC)c1OC	7	2.6	-1	2	1	3647	16
20	COc1cccc(NC(=O)CSc2nc3ccccc3nc2N2CCCC2)c1	-8	20	-15	-4	-5	3864	4
22	Cc1ccc(CNC(=O)CCC2CCCN(Cc3cccc4ncccc34)C2)o1 (stereo unspecified)	15	2.9	-13	-1	2	3743	3
13	CCN1C(=O)c2ccccc2S(=O)c2ccc(C(=O)NCCCN3CCCC3=O)cc21 (stereo unspecified)	-5	6.0	13	-18	.	3997	.
24	COCCNC(=O)C(c1ccccc1C)N(CCOC)C(=O)Cn1nnc2ccccc21 (stereo unspecified)	2	1.5	-7	7	14	4083	5
19	COc1ccc(S(=O)(=O)Nc2cc(C(=O)NCCCOC(C)C)ccc2N2CCOCC2)cc1	7	3.9	-5	0	5	4254	2

Next structures follow.
#	SMILES	Sa ugtP lethal	RN4220 kill	PrP UTR inh	BJeLR lethal	Mtb hypoxia inh	Bead autofluor	Mtb hypoxia inh growth
33	O=C(CS(=O)CC(=O)N(c1cccc(F)c1)C(C(=O)NC1CCCCC1)c1ccco1)Nc1ccc(F)cc1 (stereo unspecified)	13	1.8	-12	5	8	2236	7
34	O=C(CN1CCN(c2ccccc2)CC1)NN=Cc1cccc(F)c1	5	5.2	.	.	6	.	5
35	CCC(C)(C)n1nnnc1C(C(C)C)N(Cc1ccco1)Cc1cc2cc3c(cc2[nH]c1=O)OCO3 (stereo unspecified)	-14	4.1	-16	-2	-1	10857	5
36	O=C(COn1nnc2ccc(Cl)cc21)NC1CCS(=O)(=O)C1 (stereo unspecified)	-3	0.2	-16	.	-2	4602	-2
37	COc1ncnc2c1oc1nc(CC(C)C)c3c(c12)CCCC3	36	-1.4	-2	.	0	4251	1
38	CCCc1[nH]nc2c1C(c1ccc(O)c(OC)c1)C(C#N)=C(N)O2 (stereo unspecified)	3	5.5	-16	-9	16	10449	3
39	O=C(Cn1nnc2c(cnn2-c2ccccc2)c1=O)NCc1cccs1	0	1.0	-28	-1	.	2785	.
40	O=C(/C=C\Nc1ccc(S(=O)(=O)Nc2ncccn2)cc1)c1cccc2ccccc12	3	5.6	-3	-5	3	3654	4

One compound at a time, as listed above. Values in the order: Sa ugtP lethal	RN4220 kill	PrP UTR inh	BJeLR lethal	Mtb hypoxia inh	Bead autofluor	Mtb hypoxia inh growth
O=C(CS(=O)CC(=O)N(c1cccc(F)c1)C(C(=O)NC1CCCCC1)c1ccco1)Nc1ccc(F)cc1 (stereo unspecified) reads 13	1.8	-12	5	8	2236	7
COc1ncnc2c1oc1nc(CC(C)C)c3c(c12)CCCC3 reads 36	-1.4	-2	.	0	4251	1

(further entries)
#	SMILES	Sa ugtP lethal	RN4220 kill	PrP UTR inh	BJeLR lethal	Mtb hypoxia inh	Bead autofluor	Mtb hypoxia inh growth
41	C=CCn1c(CNC(=O)c2cccs2)nnc1SCC(=O)c1ccc(Br)cc1	-10	1.6	-26	-6	-1	23917*	8
42	CCCn1c(CCNC(=O)c2cccs2)nc2ccccc21	-1	-0.1	-2	2	1	6074	-3
43	Cc1ccc(NC(=O)c2cc(S(=O)(=O)NCCC3=CCCCC3)ccc2F)cc1F	-5	4.6	6	9	4	2023	3
44	Cc1occc1-c1nnc(SCC(=O)Nc2nc(-c3ccccc3)cs2)o1	-20	2.1	-22	4	12	19701*	7
45	COc1cccc(C(=O)Nc2ccccc2N2CCN(C(=O)c3ccccc3)CC2)c1	-2	1.8	-36	.	-4	5245	2
46	Cc1cc(C(=O)CSc2ncccn2)c(C)n1Cc1ccco1	0	2.7	-93	-1	-9	2227	0
47	Cc1ccc(S(=O)(=O)N2CCOCC2)cc1NC(=O)C(c1ccc(Cl)cc1)C(C)C (stereo unspecified)	91*	89*	-6	2	3	?	2
48	COC(=O)CCC/C=C1/SCC(NC(=O)c2ccccc2)C1NC(C)=O (stereo unspecified)	3	8.3	2	24	0	4180	3
49	Cc1ccc(C(=O)Nc2ccc(S(=O)(=O)N3CCOCC3)cc2)cc1C	2	3.3	-4	-7	22	.	4
50	O=C(CNc1ccc2c(c1)OCO2)N/N=C\c1ccccc1Cl	.	.	-6	5	.	7965	.
51	COCC(COCCCNC(=O)Nc1ccc(Br)cc1)OC (stereo unspecified)	-4	2.1	-12	-4	-3	2917	4
52	Cc1cccc(C(=O)NNC(=O)c2ccc(-c3ccccc3)cc2)c1	-8	3.0	-19	4	2	2331	7
53	O=C(Cc1ccc(NC(=O)C2CCCN(C(=O)C3CCCC3)C2)cc1)Nc1ccc(C(=O)N2CCOCC2)cc1 (stereo unspecified)	8	0.7	-14	.	3	3184	-1
54	Cc1cc(C)c(C)c(S(=O)(=O)NCc2ccc(C(=O)N3CCOCC3)cc2)c1C	1	6.3	-9	-1	-3	6829	4
55	CCOc1ccc2nc(N(CCN(CC)CC)C(=O)c3ccc([N+](=O)[O-])cc3)sc2c1	8	5.3	1	13	14	4326	-2
56	c1ccc2c(c1)nc(NC1CCCCC1)c1nncn12	3	4.5	4	4	12	4512	6
57	COc1ccc(C=NNC(=O)CCCCCNC(=O)c2ccccc2)cc1	-1	0.9	.	.	7	.	10
58	CN(C)S(=O)(=O)N(CC(=O)NCc1ccccc1)c1ccccc1	5	4.9	-13	-6	8	4154	2
59	Cc1cccc(NNC(N)=S)c1	3	16	-13	1	15	4514	15
60	Nc1nc(SCC(=O)Nc2ccccc2)nc2nc3c(cc12)CCCC3	20	2.3	-17	-11	-11	4114	-8
61	C=CCC1CCCCC12NC(=O)NC2=O (stereo unspecified)	-13	0.3	-18	-1	3	3742	2
62	CC(Cc1ccccc1)NC(=S)CN1CCCC1=S (stereo unspecified)	0	5.3	-17	9	-4	4069	-1
63	Cc1ccc(N=Nc2c(N)n[nH]c2N)cc1	15	3.0	-52	-12	5	3602	-5
64	O=C(Nn1c(-c2ccc(F)cc2)nc2ccccc2c1=O)C1CCCCC1	7	3.1	-20	7	15	8170	4
65	COc1ccc(N2C(=O)C3CCCCC3C2=O)cc1NC(=O)c1ccccc1 (stereo unspecified)	0	0.1	-16	5	-10	4879	-3
66	COc1cc(-c2nnc3sc(-c4ccco4)nn23)cc(OC)c1OC	-8	0.5	-7	4	2	23532*	18
